# Bioassay records as filed in PubChem BioAssay.
# PrP UTR inh = inhibition of PrP 5' UTR reporter expression | cell-based PrP 5' UTR mRNA reporter, plate reader | inhibition, % (no concentration beside the values) | 340,000 compounds, 0.35% hits;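 active = every replicate at 50% or more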;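 also: 0 = median of the neutral control wells; tested in H4 reporter cells; numbers are from one replicate; inactives centre near -14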
# Sa RN4220 lethal = growth inhibition of S. aureus RN4220, primary screen, OD600; 16 h; 330,000 compounds, 0.33% hits; AID 1259311, 2017; inhibition, % (concentration not given with the values);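 active = z-score of -3 or lower and OD600 up to 0.18 on both plates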;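 also: plate controls were untreated cells for no effect and reference antibiotic for full effect; stock transfer was 100 nL into about 80 µL; one replicate is shown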
# Autofluor counter = counter-screen for toxin protease inhibitors: compound fluorescence; fluorescence intensity (test concentration not listed); 360,000 compounds, 3.1% hits; compound autofluorescence counterscreen, microsphere flow cytometry; stronger effect = higher value;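 active = at least 3 SD above the mean of all compounds, about 16000 in these data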;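 also: 100 nL of 1 mM stock went into each well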
# BJeLR viability = MLPCN primary cell-based screen for lethality selective to Ras in HRASV12 cells | BJeLR (HRASV12) viability, CellTiter-Glo ATP luminescence, 48 h; reference of the scale not given here | inhibition, % (test concentration not listed) | 300,000 compounds, 0.17% hits | AID 1554, 2009;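 active = replicate mean above 50%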;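 also: 50 nL library stock added to about 25 µL; numbers are from one replicate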
# Mtb hypoxia inh = PubChem AID 1159583 | M. tuberculosis hypoxia-regulated fluorescent reporter, fluorescence | fluorescence inhibition, % (concentration not given with the values) | 300,000 compounds, 0.1% hits;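 active = 35 to 45% if threefold the growth effect, above 45% if 1.5-fold the growth effect; inactive = the rest, general growth blockers included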;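 also: wells of about 50 µL received 100 nL stock; 0% = vehicle wells and 100% = reference inhibitor wells; whole bacteria with a GFP reporter of the hypoxia response; strong numbers were not always called active; many hits fall short of the cut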
# ugtP null kill = growth inhibition of ugtP-null S. aureus, primary screen, RN4220 ugtP deletion, OD600. 16 h; some inactives read as strong as hits. growth inhibition, % (concentration not given with the values). 330,000 compounds, 0.54% hits. AID 1259309, 2017;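 active = z-score under -3 and OD600 up to 0.15 on both plates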;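 also: plate controls were untreated wells for no effect and antibiotic for full effect; wells of about 80 µL received 100 nL stock; the first replicate is given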
# Mtb hypoxia inh growth = also measured in Mtb hypoxia inh; calls as there; growth inhibition, %; measured here: M. tuberculosis growth (absorbance);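 0% = vehicle and 100% = reference antibiotic; read after six days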
# An asterisk follows results filed as active; . = no result given; & = joins results of further samples.
# Start of the listing, in advance, 3 compounds:
SMILES,PrP UTR inh,Sa RN4220 lethal,Autofluor counter,BJeLR viability,Mtb hypoxia inh,Mtb hypoxia inh growth,ugtP null kill
COc1ccc(N2CCN(C(=O)CSc3nnc(-c4cccnc4)n3-c3ccc(F)cc3)CC2)cc1,-15,1.7,8333,-8,-2,-5,-18
COc1ccccc1N1CCN(C2CCN(C(=O)COc3cccc(C)c3)CC2)CC1,3,5.8,2532,-6,11,13,4
COCCn1c(N2CCCC2)nc2c1c(=O)[nH]c(=O)n2C,-17,3.1,3980,5,13,3,5

# This part in full (from the top)
SMILES,PrP UTR inh,Sa RN4220 lethal,Autofluor counter,BJeLR viability,Mtb hypoxia inh,Mtb hypoxia inh growth,ugtP null kill
COc1ccc(N2CCN(C(=O)CSc3nnc(-c4cccnc4)n3-c3ccc(F)cc3)CC2)cc1,-15,1.7,8333,-8,-2,-5,-18
COc1ccccc1N1CCN(C2CCN(C(=O)COc3cccc(C)c3)CC2)CC1,3,5.8,2532,-6,11,13,4
COCCn1c(N2CCCC2)nc2c1c(=O)[nH]c(=O)n2C,-17,3.1,3980,5,13,3,5
N/C(=N\N=C\c1ccnc2ccccc12)SC1CC(=O)N(c2ccc(Br)cc2)C1=O (stereo unspecified),-6,.,2490,-7,.,.,.
CC1N=C(c2ccccc2)c2cc(Br)ccc2NC1=O (stereo unspecified),-23,0.7,3576,3,-5,-19,-5
N#Cc1cc(C#N)c(N2CCN(c3cccc(Cl)n3)CC2)nc1N,-50,0.8,19498*,-4,7,-2,6
COc1ccc(C2=NN(CN3C(=O)C(=O)c4ccccc43)C(c3ccc(OC)cc3)C2)cc1 (stereo unspecified),-71,3.4,2958,-4,-2,5,1
Cc1cccc(NC(=O)COc2coc(CN3CCN(c4ccccc4)CC3)cc2=O)c1,-2,0.0,.,5,-4,3,6
C[N+]1(C)CCc2cc3c(cc2C1C1OC(=O)c2c1ccc1c2OCO1)OCO3 (stereo unspecified),.,3.9&6.7,.,.,9&4,5&4,0&0
Cc1ccc(NC(=O)NC(=O)c2cnccc2C(F)(F)F)c(C)c1,-16,0.9,4437,12,3,-9,6
C[C@H](N)C(=O)NC[C@H]1O[C@@H](n2cnc3c(N)ncnc32)[C@H](O)[C@@H]1O,-10,3.0,3850,.,-9,7,-3
CN(CC12CC3CC(CC(C3)C1)C2)C(=O)c1ccco1,-5,-1.0,5218,-5,.,.,1
COCCN(CCOC)S(=O)(=O)c1ccc(C(=O)Nc2nc3c(s2)CCc2ccccc2-3)cc1,-11,7.3,9318,12,0,3,-2
CCOCCOC(=O)COc1ccc2c(=O)c(Oc3ccc(OC)cc3)coc2c1,-27,2.8,4185,-6,16,3,1
CCn1c(CNC(=O)COc2ccc(C(C)C)cc2)nnc1SCC(=O)Nc1ccc(F)cc1,-6,11,9803,-8,2,2,-8

# Some of the entries above in another layout.
# Value order – PrP UTR inh | Sa RN4220 lethal | Autofluor counter | BJeLR viability | Mtb hypoxia inh | Mtb hypoxia inh growth | ugtP null kill
CCOCCOC(=O)COc1ccc2c(=O)c(Oc3ccc(OC)cc3)coc2c1
→ -27 | 2.8 | 4185 | -6 | 16 | 3 | 1
CCn1c(CNC(=O)COc2ccc(C(C)C)cc2)nnc1SCC(=O)Nc1ccc(F)cc1
→ -6 | 11 | 9803 | -8 | 2 | 2 | -8

# Carrying on:
SMILES,PrP UTR inh,Sa RN4220 lethal,Autofluor counter,BJeLR viability,Mtb hypoxia inh,Mtb hypoxia inh growth,ugtP null kill
COc1cccc(CC(=O)Nc2cc(S(=O)(=O)N3CCOCC3)ccc2N2CCN(C)CC2)c1,-28,1.7,8360,.,6,-2,9
CCOC(=O)C1=NNC(C(=O)c2ccccc2)C1c1ccc(OC)cc1 (stereo unspecified),-12,-0.3,4978,-2,.,.,6
CCCc1nc(SCC(=O)N2CCc3ccccc3C2)c2ccccc2n1,-14,9.8,8517,-5,20,1,-6
Cn1c(=O)c2c(nc(NN=Cc3cccs3)n2C)n(C)c1=O,.,-1.4,.,.,0,-10,-3
NC(CSCc1ccccc1Cl)C(=O)O (stereo unspecified),-26,4.8,4355,1,12,9,12
O=C(Cc1nc2ccccc2[nH]c1=O)c1ccc(Cl)cc1,-134,4.6,.,16,1,-1,1
CCOc1ccc(OCC)c(S(=O)(=O)N2CCOCC2)c1,-9,0.3,4406,-1,-2,6,1
Cc1ccc(NC(=O)c2cc3cc(OC(F)(F)F)ccc3[nH]2)cc1,.,-0.9,.,-5,6,15,-6
COc1cc(C(=O)N2CCCCC2)ccc1OCC(=O)Nc1ccc(F)cc1,-18,1.0,4363,.,2,-13,6
N#CC1=C2Sc3ccccc3N2CCCC1=O,-37,3.9,7643,-1,7,5,9
CCCn1c(-c2ccc[nH]c2=O)nc2ccccc21,-30,2.2,4563,.,5,5,1
Cc1ccccc1NC(=O)CSc1nc2cc3c(cc2cc1C)CCC3,-48,-1.3,13005,19,-9,-6,-8
CC(C(=O)NCC(=O)Nc1ccc(F)c(F)c1F)N1CCN(c2ccc(O)cc2)CC1 (stereo unspecified),-2,4.9,3864,.,7,9,2
Cc1noc(/C=C/c2ccco2)c1S(=O)(=O)N1CCC(C(=O)N2CCc3ccccc32)CC1,-19,-11,5816,2,4,7,-2
COc1ccccc1NC(=O)c1nnn(Cc2ccccc2)c1NC(C)=O,-38,3.8,24511*,-1,10,-2,-5

# As entered above:
# COc1cc(C(=O)N2CCCCC2)ccc1OCC(=O)Nc1ccc(F)cc1 in Autofluor counter has 4363
# CCOC(=O)C1=NNC(C(=O)c2ccccc2)C1c1ccc(OC)cc1 (stereo unspecified) in BJeLR viability has -2
# N#CC1=C2Sc3ccccc3N2CCCC1=O in PrP UTR inh has -37
# O=C(Cc1nc2ccccc2[nH]c1=O)c1ccc(Cl)cc1 in Mtb hypoxia inh growth has -1
# NC(CSCc1ccccc1Cl)C(=O)O (stereo unspecified) in BJeLR viability has 1
# COc1cccc(CC(=O)Nc2cc(S(=O)(=O)N3CCOCC3)ccc2N2CCN(C)CC2)c1 in Autofluor counter has 8360
# CC(C(=O)NCC(=O)Nc1ccc(F)c(F)c1F)N1CCN(c2ccc(O)cc2)CC1 (stereo unspecified) in ugtP null kill has 2

# (continued)
SMILES,PrP UTR inh,Sa RN4220 lethal,Autofluor counter,BJeLR viability,Mtb hypoxia inh,Mtb hypoxia inh growth,ugtP null kill
Cc1cc(C)nc(NN=Cc2c[nH]c3ccccc23)n1,.,0.2,.,.,1,1,-2
Cc1ccc(SCCC(=O)N2CCOCC2)cc1,-42,2.8,10350,-6,0,9,8
COc1ccccc1NC(=O)c1ccc(NC(=O)COC(=O)CCC2CCCC2)cc1,-22,5.5,2656,-9,9,-3,5
CC(C)Cc1nnc(NC(=O)CCC(=O)N2CCN(CCOC(c3ccccc3)c3ccccc3)CC2)s1,-32,-1.9,2284,7,2,0,-1
O=C1COc2ccc(C(=O)CSc3nnc(Cc4cccs4)n3-c3ccc(Cl)cc3)cc2N1,-20,3.9,17966*,-5,4,5,-33
Cn1c(SCC(=O)Nc2ccc(Cl)cc2F)nnc1-c1ccco1,-19,7.3,4146,0,8,5,1
COc1cc(/C=C(\C#N)c2nc3ccccc3[nH]2)c([N+](=O)[O-])cc1OCc1ccccc1,-22,-1.0,2617,-7,3,13,-1
CCC(=O)Nc1nc(C)c(-c2csc(Nc3cccc(C(=O)O)c3)n2)s1,-3,7.7,4314,4,-7,3,8
COc1cccc(NC(=O)c2oc3ccccc3c2NC(=O)C(C)(C)C)c1,-10,-5.2,6579,1,7,1,50
CC(=O)c1ccc(NC(=O)c2cccc(S(=O)(=O)N3CCN(C)CC3)c2)cc1,-37,0.6,4397,9,9,6,6
COc1ccccc1NC(=O)c1ccc(NC(=O)COC(=O)CC(NC(=O)c2ccccc2Cl)c2ccccc2)cc1 (stereo unspecified),-2,-2.3,2667,-5,-6,0,-9
NC(=O)c1noc(C(=O)N(CC(=O)NC2CCCC2)Cc2ccc3c(c2)OCO3)c1N,-10,-0.1,4102,.,.,.,-9
COc1ccc(C)cc1-n1nnnc1SCC(O)=C(C#N)c1nc2ccccc2[nH]1,.,2.4,.,.,7,5,1
CCCCN(CC)CCCNC(=O)CC1Oc2ccccc2NC1=O (stereo unspecified),-11,-1.0,10487,-21,2,2,3
O=C(NC1CCCCC1)C(c1ccc2ncccc2c1)N(Cc1ccc(F)cc1)C(=O)c1cccs1 (stereo unspecified),-23,1.7,8145,8,4,4,21
CC(=O)c1c(-c2ccccc2)c2cc(Cl)ccc2n(C)c1=O,-11,-1.0,3947,7,0,10,17
CCC(=O)N1N=C(c2c(O)n(CCc3ccccc3)c(=O)[nH]c2=O)CC1c1ccc(OC)c(OC)c1 (stereo unspecified),.,14,6020,0,-1,8,-11
CCn1c(CNS(=O)(=O)c2ccc(Br)cc2)nnc1SC,14,4.2,4413,9,8,-4,4
C[C@H](NC(=O)[C@@H]1Cc2ccccc2CN1)C(=O)NCC1CCC(C(=O)O)CC1 (stereo partly specified),.,3.6,.,.,-9,6,9
CCOC(=O)N1CCC(NC(=O)C(CC(C)C)NC(=O)C2CCC(C)CC2)CC1 (stereo unspecified),-15,-0.9,3955,-8,18,5,-2
NNc1nc(-c2ccccc2)c2cc(Cl)ccc2n1,-27,11,6126,7,3,1,4
COc1ccc(NS(=O)(=O)c2cccc(C(=O)NCC(c3ccccc3OC)N3CCCC3)c2)cc1 (stereo unspecified),-12,-0.3,15861,1,4,8,5
COc1ccc2c(c1OC)C(=O)OC2Nc1nc(-c2ccccc2)cs1 (stereo unspecified),-20,1.9,2963,12,10,7,-1
O=C(Nc1ccccc1)c1cccnc1N1CCCC1,-19,1.8,17182*,8,10,6,4
O=C(NCc1ccccc1)C1CCC1,-41,3.2,1892,-8,-2,11,5
CCN1C(=O)N[C@@H](c2cccc(C(F)(F)F)c2)[C@H](C(C)=O)[C@H]1C,-18,.,3960,0,.,.,.
O=C(Cc1ccccc1)Oc1coc(CSc2ncccn2)cc1=O,-7,2.0,4065,16,-3,8,5
Cc1ccc2nc(SCC(=O)c3c(N)n(C)c(=O)n(C)c3=O)[nH]c2c1,-6,1.5,4420,-2,-14,6,3
O=C(NCCc1ccccc1)C1(c2ccccc2)CCCC1,-13,17,.,-7,15,5,5
Cc1ccc(C([O-])=C(C(=S)NCc2ccccc2)[n+]2cccc(CO)c2)cc1[N+](=O)[O-],-6,-0.2,4142,.,0,8,-7
COc1cccc(CNC(=O)CCS(=O)(=O)c2cccc3nonc23)c1,1,3.5,3099,-6,17,12,6
Cc1cc(C)n(CC(=O)NNC(=O)c2cccc(C(F)(F)F)c2)n1,-15,1.2,6042,-9,-8,-5,0
Cc1ccc(C)c(S(=O)(=O)NCc2cccnc2)c1,-6,3.1,21139*,11,5,3,3
NC(=O)C(=O)N/N=C/c1c(F)c(F)c(F)c(F)c1F,-31,.,4358,0,.,.,.
O=C1CN(Cc2nc3cc(Cl)ccc3c(=O)[nH]2)CCN1,-20,2.4,4485,6,5,4,-6
COc1ccccc1N1CCN(C(=O)C2CCCCN2S(=O)(=O)c2ccc(C)cc2)CC1 (stereo unspecified),-4,3.1,4491,13,2,-6,10
CCOC(=O)c1c(NC(=O)C2C3C=CC(CC3)C2C(=O)O)sc(C)c1CC (stereo unspecified),-16,13,2104,-11,-3,-2,12
C=CCOCCN(CC)CC,-12,1.9,4051,-4,7,-3,5
COc1ccc(CNC(=O)CCNS(=O)(=O)c2ccc(NC(C)=O)cc2)cc1OC,-15,1.2,3803,.,11,5,2
CCOc1ccc(-c2nc(CSCC(=O)NC3CCCc4ccccc43)c(C)o2)cc1 (stereo unspecified),-27,5.0,10051,12,4,9,38
COc1ccccc1NC(=O)CCN1C(=O)/C(=C\c2cc(OC)c(OC)c(OC)c2)SC1=S,-7,4.3,6052,-4,9,1,-3
COc1ccc(S(=O)(=O)NC2CC2)cc1Cl,-18,3.2,3478,-3,21,13,3
Cc1nc2ccc(Cl)cc2c(=O)n1-c1ccccc1Cl,-10,-2.2,3620,-16,0,-4,-1
COc1ccc(/C=N/Nc2nc3ccccc3c(=O)[nH]2)cc1,-69,.,19360*,-18,.,.,.
Fc1ccc(-c2n[nH]c(=S)n2CC2CCCO2)cc1 (stereo unspecified),-18,.,4757,9,.,.,.
